# Screening data deposited in PubChem BioAssay by Broad Institute.
# NOMO-1 viab: STK33 inhibitor candidate reducing NOMO-1 cell viability; NOMO-1 AML viability, CellTiter-Glo luminescence, 72 h; inhibition, % (no concentration beside the values); 7.5% of 37,000 active; AID 2330;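 active = most replicates above 80%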;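 note: wells of about 30 µL received 25 nL stock; 0% = median of vehicle wells and 100% = reference inhibitor level; the first replicate is given; inactives centre near 10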
# The depositor's hits bear a star. Some of the compounds tested; rates above refer to the full screens.
SMILES,NOMO-1 viab
C[C@@H]1CN([C@H](C)CO)C(=O)Cc2cc(NS(=O)(=O)c3ccc(F)cc3)ccc2O[C@H]1CN(C)C(=O)Nc1ccc(C(F)(F)F)cc1,-1
O=S(=O)(/N=C(\Oc1ccccc1)c1ccccc1)c1ccc(Br)cc1,-22
Cc1ccc(NC(=O)CSc2nc3ccccc3c(=O)n2-c2cccc(C(F)(F)F)c2)c(C)c1,34
OCCCc1n[nH]c(=S)n1-c1ccccc1,17
C[C@@H]1CCCCO[C@@H](CN(C)S(=O)(=O)c2ccccc2)[C@@H](C)CN([C@H](C)CO)C(=O)c2cc(NC(=O)C3CCCCC3)ccc2O1,22
CC(C)c1ccccc1NC(=O)CCCN1C(=O)c2ccccc2C1=O,-28
COc1ccc(CN(C)C[C@H]2Oc3c(NC(=O)Nc4ccc(F)cc4)cccc3C(=O)N([C@H](C)CO)C[C@@H]2C)cc1,72
COC(=O)C(C)N(C(=O)c1ccccc1[N+](=O)[O-])c1c(C)cccc1C (stereo unspecified),3
Cc1noc(C)c1S(=O)(=O)Nc1ccc2c(c1)C(=O)N([C@@H](C)CO)C[C@H](C)[C@H](CN(C)S(=O)(=O)c1ccc(F)cc1)O2,23
C[C@@H]1CN([C@H](C)CO)C(=O)c2cc(NC(=O)Nc3ccccc3)ccc2O[C@H]1CN(C)Cc1ccc(C(F)(F)F)cc1,99*
C[C@H](CO)N1C[C@H](C)[C@@H](CN(C)Cc2ccc(-c3ccccc3)cc2)Oc2ccc(NC(=O)Cc3ccccc3)cc2C1=O,19
C[C@H](CO)N1C[C@H](C)[C@H](CN(C)C(=O)Nc2ccc(F)cc2)Oc2c(NC(=O)NC3CCCCC3)cccc2C1=O,22
C[C@H]1CN([C@@H](C)CO)C(=O)c2cccc(NS(=O)(=O)c3cccs3)c2O[C@H]1CN(C)Cc1ccc(-c2ccccc2)cc1,12
O=C(CSc1nnc(-c2cccnc2)o1)c1ccc(Br)cc1,-10
O=C(N=S1CCN(c2ncc(C(F)(F)F)cc2Cl)CC1)c1ccccc1,15
C=C(CO)C1Cc2cc(C(C)=O)ccc2O1 (stereo unspecified),-7
COc1ccc(S(=O)(=O)N(C)C[C@@H]2Oc3c(NS(=O)(=O)c4ccc(C)cc4)cccc3C(=O)N([C@@H](C)CO)C[C@H]2C)cc1,11
COc1ccccc1NC(=S)NCc1cccnc1,-3
CNC[C@@H]1Oc2ccc(NC(=O)Nc3ccc(F)cc3)cc2CC(=O)N([C@H](C)CO)C[C@@H]1C,1
Cc1c(Br)c([N+](=O)[O-])nn1CC(=O)Nc1ccc(C#N)cc1,52

# Some of the entries so far, bar-delimited:
Structure | NOMO-1 viab
COc1ccc(S(=O)(=O)N(C)C[C@@H]2Oc3c(NS(=O)(=O)c4ccc(C)cc4)cccc3C(=O)N([C@@H](C)CO)C[C@H]2C)cc1 | 11
C=C(CO)C1Cc2cc(C(C)=O)ccc2O1 (stereo unspecified) | -7

# Remaining list, next part.
SMILES,NOMO-1 viab
C[C@H](CO)N1C[C@H](C)[C@H](CN(C)Cc2ccccc2)Oc2ccc(NC(=O)CCCCCC(=O)Nc3ccccc3N)cc2C1=O,23
CNC[C@@H]1Oc2c(NC(=O)c3ccc(-c4nccs4)cc3)cccc2C(=O)N([C@H](C)CO)C[C@H]1C,12
C[C@@H]1CN([C@@H](C)CO)C(=O)c2cccc(NC(=O)Nc3ccc4c(c3)OCO4)c2O[C@@H]1CN(C)Cc1ccc(Cl)c(Cl)c1,56
Cc1oc2c(c1C(=O)N1CCC(C)CC1)C(=O)c1ccccc1C2=O,113*
Cc1noc(C)c1NC(=O)N(C)C[C@@H]1Oc2ccc(NS(=O)(=O)c3ccccc3)cc2C(=O)N([C@@H](C)CO)C[C@@H]1C,18
C[C@@H]1CN([C@H](C)CO)C(=O)Cc2cc(NC(=O)c3ccncc3)ccc2O[C@@H]1CN(C)Cc1ccc(C(=O)Nc2ccccc2N)cc1,61
Cn1c(SCC(=O)Nc2sc3c(c2C#N)CCCC3)nnc1-c1ccccc1,-21
C[C@@H]1CN([C@H](C)CO)C(=O)c2cc(NS(=O)(=O)c3cccs3)ccc2O[C@@H]1CN(C)S(C)(=O)=O,-11
C[C@@H]1CN([C@H](C)CO)C(=O)c2cc(NC(=O)CCC(F)(F)F)ccc2O[C@@H]1CN(C)CC1CC1,9
COc1ccc(CN(C)C[C@@H]2Oc3ccc(NC(=O)Cc4ccccc4)cc3CC(=O)N([C@@H](C)CO)C[C@@H]2C)cc1,12
O=C(O)CC(c1ccc(F)cc1)c1ccco1 (stereo unspecified),11
O=[N+]([O-])c1ccccc1OCCCCSc1ncccn1,45
CSc1cccc(NC(=O)CSc2nnc(-c3ccc(Br)cc3)o2)c1,-10
C[C@H]1CN([C@@H](C)CO)C(=O)c2cccc(NS(=O)(=O)c3ccccc3)c2O[C@H]1CN(C)C(=O)Nc1ccc(C(F)(F)F)cc1,7
COc1ccc(NC(=O)Nc2ccc3c(c2)C(=O)N([C@@H](C)CO)C[C@@H](C)[C@H](CN(C)S(=O)(=O)c2ccc(Cl)cc2)O3)cc1,29
C[C@H]1CN([C@@H](C)CO)C(=O)Cc2cc(NS(C)(=O)=O)ccc2O[C@H]1CN(C)C(=O)Nc1cccc2ccccc12,20
Cc1ccnc(SCC(=O)Nc2sc3c(c2C(=O)Nc2ccccc2)CCCC3)n1,26
CCOc1cccc(-c2nnc(SCC(=O)Nc3c(C)cccc3C)n2C)c1,-10
O=C(Nc1ccc(S(=O)(=O)N2CCOCC2)cc1)c1cc(-c2ccncc2)nc2c(Cl)cccc12,36
Cc1ccc(S(=O)(=O)Nc2ccc3c(c2)CC(=O)N([C@@H](C)CO)C[C@H](C)[C@H](CN(C)Cc2ccncc2)O3)cc1,7
C[C@@H]1CN([C@H](C)CO)C(=O)c2cccc(NC(=O)Nc3ccc(F)cc3)c2O[C@H]1CN(C)S(=O)(=O)c1ccc(F)cc1,3
COc1ccc(OC)c(N(CC(=O)N2CCc3ccccc3C2)S(C)(=O)=O)c1,6
CC(=O)N1CCN(c2nc3ccc(Cl)cc3s2)CC1,13
C[C@H](CO)N1C[C@H](C)[C@@H](CN(C)C(=O)Nc2cccc3ccccc23)Oc2c(NC(=O)C3CCCCC3)cccc2C1=O,-3
CCc1ccc(-n2c(SCC(=O)c3ccc(Cl)cc3)nnc2-c2ccncc2)cc1,33
C[C@@H]1CN([C@@H](C)CO)C(=O)c2cc(NS(=O)(=O)c3cn(C)cn3)ccc2O[C@H]1CN(C)Cc1ccc(Cl)c(Cl)c1,14
Cc1nnc(SCC2=NN(c3nc4ccccc4s3)C(=O)C2)s1,16
Cc1ccc([N+](=O)[O-])cc1N(CC(=O)Nc1cccc(C)c1C)S(C)(=O)=O,-18
COc1ccc2oc(=O)c(C(=O)NCc3ccco3)cc2c1,21
C[C@@H]1CN([C@H](C)CO)C(=O)c2cc(NS(=O)(=O)c3ccccc3)ccc2O[C@@H]1CN(C)C(=O)Nc1ccc2c(c1)OCO2,-13
COCCCNC(=O)c1ccc(-c2nc3ccccc3nc2-c2ccccc2)cc1,32
C[C@@H]1CN([C@@H](C)CO)C(=O)c2cc(NS(=O)(=O)c3ccccc3)ccc2O[C@@H]1CN(C)Cc1ccc(C(F)(F)F)cc1,3
CC(=O)Nc1ccc(NC(=O)CSc2nccc(=O)[nH]2)cc1,1
C[C@@H]1CN([C@@H](C)CO)C(=O)c2cccc(NS(=O)(=O)c3ccc(F)cc3)c2O[C@@H]1CN(C)C(=O)Nc1cccc2ccccc12,39
CC(=O)Oc1ccc(C(=O)NCc2nc(-c3ccccc3)no2)cc1,-14
C[C@@H]1CN([C@@H](C)CO)C(=O)c2cccc(NS(=O)(=O)c3cn(C)cn3)c2O[C@@H]1CN(C)C(=O)Nc1ccc(F)cc1,7
O=C1OCCN/C1=C\C(=O)c1ccccc1,12
C[C@@H]1CN([C@@H](C)CO)C(=O)c2cc(NS(=O)(=O)c3ccc(Cl)cc3)ccc2O[C@@H]1CN(C)S(=O)(=O)c1cn(C)cn1,-10
C[C@@H]1CN([C@@H](C)CO)C(=O)c2cc(NC(=O)Nc3ccccc3)ccc2O[C@H]1CN(C)C(=O)Nc1ccccc1,2
CC(=O)N1c2ccccc2C=Cc2ccccc21,21
C[C@@H]1CN([C@@H](C)CO)C(=O)c2cccc(NC(=O)Nc3ccccc3)c2O[C@@H]1CN(C)C(=O)Nc1cccc2ccccc12,106*
CS(=O)(=O)N(CC(=O)Nc1ccccc1C(=O)N1CCOCC1)c1cc(C(F)(F)F)ccc1Cl,25
C[C@H](CO)N1C[C@H](C)[C@H](CN(C)S(=O)(=O)c2cn(C)cn2)Oc2c(NC(=O)C3CCCCC3)cccc2C1=O,23
O=C(CSc1nnc(-c2ccccc2)n1-c1ccccc1)Nc1ccc(Br)c(Cl)c1,59
COc1ccc2ccccc2c1CNCc1ccccn1,29
O=C(c1ccc2c(c1)C(=O)c1ccccc1-2)c1ccccc1Br,33
C[C@H](CO)N1C[C@H](C)[C@H](CN(C)S(=O)(=O)c2ccccc2)Oc2ccc(NC(=O)Nc3ccccc3)cc2CC1=O,41
C[C@@H]1CN([C@@H](C)CO)C(=O)c2cccc(NC(=O)Nc3ccc(C(F)(F)F)cc3)c2O[C@@H]1CN(C)S(=O)(=O)c1cn(C)cn1,10
CC(C)NC(=O)Nc1cccc2c1O[C@H](CN(C)Cc1ccncc1)[C@H](C)CN([C@@H](C)CO)C2=O,-18
COc1ccc(S(=O)(=O)Nc2cccc3c2O[C@H](CN(C)Cc2ccncc2)[C@@H](C)CN([C@@H](C)CO)C3=O)cc1,-5
COc1ccc(OC)c(NC(=O)Cc2c(OC)ccc3cc(Br)ccc23)c1,30
COc1ccc(S(=O)(=O)N(C)C[C@@H]2Oc3ccc(NC(=O)CCCCCC(=O)Nc4ccccc4N)cc3C(=O)N([C@@H](C)CO)C[C@@H]2C)cc1,-20
C[C@@H]1CN([C@H](C)CO)C(=O)Cc2cc(NC(=O)CCCN(C)C)ccc2O[C@@H]1CN(C)Cc1ccc(Oc2ccccc2)cc1,20
C[C@H]1CN([C@@H](C)CO)C(=O)c2cccc(NC(=O)C3CC3)c2O[C@@H]1CN(C)S(=O)(=O)c1ccc(F)cc1,-18
N#Cc1c(N)nc(SCC(=O)c2ccc(Cl)cc2)c(C#N)c1-c1ccco1,1
COc1ccc(Cl)cc1NC(=O)CSc1nnc(-c2ccccc2)n1-c1ccc(C)cc1,40
Cc1ccc(S(=O)(=O)N(C)C[C@H]2Oc3ccc(NC(=O)Cc4cn(C)c5ccccc45)cc3CC(=O)N([C@H](C)CO)C[C@H]2C)cc1,38
C[C@H]1CN([C@@H](C)CO)C(=O)c2cccc(NC(=O)c3ccncc3)c2O[C@H]1CN(C)Cc1ccncc1,5
COc1cccc(S(=O)(=O)NCc2ccc(C(=O)Nc3ccc(Br)cc3F)cc2)c1,-8
COc1ccc(NC(=O)N(C)C[C@@H]2OCCCC[C@@H](C)Oc3ccc(NC(=O)Nc4ccc5c(c4)OCO5)cc3C(=O)N([C@H](C)CO)C[C@@H]2C)cc1,-8

# A draw from above in order of heavy-atom count, highest first:
SMILES,NOMO-1 viab
COc1ccc(S(=O)(=O)N(C)C[C@@H]2Oc3ccc(NC(=O)CCCCCC(=O)Nc4ccccc4N)cc3C(=O)N([C@@H](C)CO)C[C@@H]2C)cc1,-20
C[C@@H]1CN([C@@H](C)CO)C(=O)c2cccc(NC(=O)Nc3ccc(C(F)(F)F)cc3)c2O[C@@H]1CN(C)S(=O)(=O)c1cn(C)cn1,10
C[C@H](CO)N1C[C@H](C)[C@H](CN(C)S(=O)(=O)c2cn(C)cn2)Oc2c(NC(=O)C3CCCCC3)cccc2C1=O,23
C[C@H]1CN([C@@H](C)CO)C(=O)c2cccc(NC(=O)C3CC3)c2O[C@@H]1CN(C)S(=O)(=O)c1ccc(F)cc1,-18
COc1ccc(Cl)cc1NC(=O)CSc1nnc(-c2ccccc2)n1-c1ccc(C)cc1,40
N#Cc1c(N)nc(SCC(=O)c2ccc(Cl)cc2)c(C#N)c1-c1ccco1,1
COc1ccc2ccccc2c1CNCc1ccccn1,29

# Further entries follow.
SMILES,NOMO-1 viab
COC(=O)c1ccc(NC(=O)CSc2nnc(-c3cccs3)n2-c2ccc(OC)cc2)cc1,18
Cc1cccc(S(=O)(=O)NC(C(=O)O)C(C)C)c1 (stereo unspecified),-32
Cc1noc(C)c1NC(=O)Nc1cccc2c1O[C@@H](CN(C)C(=O)Nc1cccc3ccccc13)[C@H](C)CN([C@H](C)CO)C2=O,-13
Cc1ccc(CC(=S)N2CCOCC2)cn1,34
Cc1noc(C)c1NC(=O)N(C)C[C@@H]1Oc2ccc(NC(=O)C3CC3)cc2C(=O)N([C@H](C)CO)C[C@H]1C,14
O=C(Nc1ccccc1C(=O)N1CCN(Cc2ccccc2)CC1)c1ccccn1,6
O=C(c1ccc(Oc2ccccc2)cc1)c1coc2ccc(O)cc12,139*
CCCCS(=O)(=O)NC1=NCN(CCO)CN1,9
COc1ccc(S(=O)(=O)N(C)C[C@H]2Oc3ccc(NC(=O)CCC(F)(F)F)cc3C(=O)N([C@@H](C)CO)C[C@H]2C)cc1,-27
Cc1noc(C)c1NC(=O)N(C)C[C@@H]1OCCCC[C@@H](C)Oc2ccc(NC(=O)Nc3ccc(C(F)(F)F)cc3)cc2C(=O)N([C@H](C)CO)C[C@@H]1C,10
C[C@@H]1CN([C@@H](C)CO)C(=O)c2cc(NS(=O)(=O)c3ccc(F)cc3)ccc2O[C@H]1CN(C)C(=O)Nc1ccc(F)cc1,-3
C[C@H](CO)N1C[C@H](C)[C@H](CN(C)S(=O)(=O)c2ccc(F)cc2)Oc2ccc(NC(=O)Nc3ccc(F)cc3)cc2CC1=O,126*
O=C1N=c2ccccc2=C1c1sc(NS(=O)(=O)c2ccccc2)nc1O,8
C[C@H]1CN([C@@H](C)CO)C(=O)Cc2cc(NC(=O)Nc3ccccc3)ccc2O[C@H]1CN(C)C(=O)Nc1ccc2c(c1)OCO2,-22
Cc1cc(C)c(Cn2nc(C(C)(C)C)cc2C(=O)NN2CCOCC2)c(C)c1,25
CC1(C)CC(C)(c2ccccc2)c2cc(SC#N)ccc2N1 (stereo unspecified),114*
C[C@@H]1CCCCO[C@H](CN(C)C(=O)c2ccccc2)[C@@H](C)CN([C@H](C)CO)C(=O)c2cc(NC(=O)c3ccccc3)ccc2O1,0
